Compound activity as filed in PubChem BioAssay.
Env fusion inh – inhibitors of HIV Env-mediated cell fusion | HeLa-JRFL Env/CEM21 cell fusion, luciferase | 360,000 tested, 1.1% active | inhibition, % at 12.3 µM | AID 651610;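 active means mean replicate inhibition score of at least 50 and every replicate individually at or above 50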;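 further: 0% = plate neutral controls and 100% = maraviroc near 300 nM; one replicate is shown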
eIF4H inh – inhibitors of RNA binding by human eIF4H. eIF4H fluorescence polarization binding assay. inhibition, % at 35 µM. 290,000 tested, 0.94% active. AID 2012;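 active means 50% or more with normal probe brightness, or confirmed in later tests; about a fifth of its hits are not listed in these tables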;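 further: calls also rest on retests at 20 µM and on dose response follow-up; 0% = protein and probe with vehicle and 100% = probe without protein; strong numbers were not always called active; many hits fall short of the cut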
UUG fidelity – alters start codon recognition fidelity in yeast; S. cerevisiae UUG-firefly luciferase reporter, luminescence/redox ratio; AID 602363; 350,000 tested, 0.13% active; activity score, % at 18.7 µM;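 active means replicate mean at a twofold rise or more, about +100% in these data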;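 further: firefly luciferase made from a UUG start codon reports start codon fidelity; reporter light over untreated wells divided by growth signal over untreated wells; some hits fall short of that in this replicate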
Rce1 inhib – blocks yeast Ras-converting enzyme. calls only. AID 2563. 290,000 tested, 0.27% active. yeast membranes, quenched prenylated peptide cleavage fluorescence;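 active means fall in fluorescence gain of 50% or more versus controls, with final raw signal at or below 3038400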;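 further: plate controls were neutral control wells for no effect and wells lacking membranes for full effect; tested at 10 µM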
Target sequence (Q03530 whole entry, looked up): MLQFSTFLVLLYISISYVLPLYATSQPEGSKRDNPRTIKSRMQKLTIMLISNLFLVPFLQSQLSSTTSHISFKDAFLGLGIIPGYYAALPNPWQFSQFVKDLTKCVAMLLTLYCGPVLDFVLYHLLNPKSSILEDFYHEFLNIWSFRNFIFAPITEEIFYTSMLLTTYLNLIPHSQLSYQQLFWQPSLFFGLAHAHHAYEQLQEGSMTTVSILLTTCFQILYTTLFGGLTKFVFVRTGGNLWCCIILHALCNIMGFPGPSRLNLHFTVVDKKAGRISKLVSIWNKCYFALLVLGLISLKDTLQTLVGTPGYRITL
PABP polyA inh – blocks human PABP binding to poly(A) RNA; AID 2014; fluorescence polarization; 290,000 tested, 1% active; P11940; inhibition, % at 35 µM;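 active means 50% or more with normal probe brightness, or confirmed in later tests; about a fifth of its hits are not listed in these tables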;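 further: calls also rest on retests at 20 µM and on dose response follow-up; controls were probe without protein and protein plus probe with vehicle; some compounds called inactive have numbers as strong as hits; many hits fall short of the cut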
Target sequence (P11940 whole entry, looked up): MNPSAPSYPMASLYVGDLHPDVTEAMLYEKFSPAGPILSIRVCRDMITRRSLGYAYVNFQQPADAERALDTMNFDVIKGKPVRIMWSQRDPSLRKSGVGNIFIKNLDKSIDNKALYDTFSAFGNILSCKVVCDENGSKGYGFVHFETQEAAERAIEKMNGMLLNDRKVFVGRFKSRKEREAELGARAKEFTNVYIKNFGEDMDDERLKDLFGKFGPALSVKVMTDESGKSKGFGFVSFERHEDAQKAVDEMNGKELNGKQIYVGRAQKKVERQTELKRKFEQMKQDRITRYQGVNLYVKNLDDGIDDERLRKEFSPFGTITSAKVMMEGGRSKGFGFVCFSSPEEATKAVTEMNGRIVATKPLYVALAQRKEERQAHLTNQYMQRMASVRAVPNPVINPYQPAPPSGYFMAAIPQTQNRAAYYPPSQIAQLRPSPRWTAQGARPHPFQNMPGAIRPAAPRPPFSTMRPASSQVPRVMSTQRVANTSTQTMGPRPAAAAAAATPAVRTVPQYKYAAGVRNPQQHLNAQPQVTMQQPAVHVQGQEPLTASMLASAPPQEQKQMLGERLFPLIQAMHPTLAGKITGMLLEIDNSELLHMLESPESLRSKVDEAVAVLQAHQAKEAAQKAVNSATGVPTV
CSC inhib – blocks cancer stem cells; cancer stem cell-like cells viability, luminescence; inhibition, % at 7.5 µM; 300,000 tested, 1.1% active; AID 2717;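 active means mean at 75% or more and at least half the replicates too; tested in HMLE shEcad cells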;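 further: 0% = median of negative and 100% = median of positive control wells; the first replicate is given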
MT1-MMP act inh – inhibitors of human MT1-MMP activation. P50281. HT1080 RFP-PRO-GFP cells, GFP/RFP ratio fluorescence, overnight; percent of plate control window, DMSO zero. GFP/RFP ratio change, % at 20 µM. 360,000 tested, 0.061% active. AID 651647;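 active means GFP/RFP ratio change of at least 30% with cell ATP level not reduced by more than half and red fluorescence within 50% of control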; further: strong numbers were not always called active
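Assay system: HT1080 RFP-PRO-GFP cells | Dosing: 20 µM single dose, 1% DMSO | Incubation: Cells overnight before dosing, compound overnight, 37 °C, 5% CO2 | Evaluation: GFP/RFP fluorescence ratio | Control set: DMSO-only wells and HT1080 RFP-L50D-GFP cell wells as references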
MT1-MMP act inh RFP – also measured in MT1-MMP act inh; calls as there; RFP signal change, %; measured here: RFP expression control read;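 0 = vehicle wells; hits needed this value within 50% of zero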
The depositor's hits bear a star; i = inactive; · = not tested or not shown; & = joins results of further samples.

SMILES	Env fusion inh	eIF4H inh	UUG fidelity	Rce1 inhib	PABP polyA inh	CSC inhib	MT1-MMP act inh	MT1-MMP act inh RFP
COc1ccc2cc(S(=O)(=O)n3cnc(C)c3)ccc2c1	26	3	-26	i	-7	-13	5	1
COCCN(C(=O)CNC(=O)c1cccs1)C(C(=O)NC(C)(C)C)c1ccccc1 (stereo unspecified)	-2	4	·	i	7	-4	4	7
CN(C)c1ccc(-c2noc(C3CCN(C(=O)Nc4ccc(Cl)cc4)CC3)n2)cc1	20	6	-12	i	-2	54	-4	-18
O=C(Nc1ccccc1)Nc1ccccn1	-140	5&-4	-3	i	4&2	-12	2	3
O=C1CC(Cc2ccc(Cl)cc2)C(=O)N1c1cc(Cl)ccn1 (stereo unspecified)	1	-10	·	i	-12	-3	1	3
CC(C)c1ccc(N(CC(=O)O)S(=O)(=O)c2cccnc2)cc1	8	7	-9	i	17	3	1	5
CC(=O)Nc1ccc(C(=O)OCc2ccccc2Br)cc1	-8	-7	-5	i	2	6	5	5
O=C1CCC(=O)N1CCc1c[nH]c2ccccc12	·	-8	-26	i	0	·	4	2
Cc1ccc2c(O)c(C)c(=O)[nH]c2n1	0	4	-24	i	3	-3	2	5
Cc1cccc(-n2c(CNC(=O)c3ccc(S(=O)(=O)N4CCCCC4)cc3)n[nH]c2=S)c1	-4	6	-23	i	2	-7	2	-2
CCOc1ccc(N(CC(=O)NC2CC2)S(=O)(=O)c2ccc(C)cc2)cc1	-1	-1	-15	i	-3	-24	2	1
Cc1ccc(S(=O)(=O)N2CCCOC2CNC(=O)C(=O)NCCc2c[nH]c3ccccc23)cc1 (stereo unspecified)	13	6	3	i	-8	-16	3	-6
CC(C)c1ccc(/C=C/C(=O)NCCCc2ccccc2)cc1	28	7	·	i	-11	31	1	0
O=C(/C=C/c1ccc(Cl)cc1Cl)c1nc2ccccc2[nH]1	-45	5	-13	i	7	47	-7	-2
Fc1ccc(-c2nc3c(-c4ccc(Cl)cc4)cnn3cc2CCN2CCOCC2)cc1	18	-13	·	i	-9	22	-8	-13
COc1ccc(CCNC(=O)CSc2nnc3ccc(-c4ccccn4)nn23)cc1OC	·	·	·	i	·	-2	0	-2
N#CC1(NC(=O)COC(=O)C23CC4CC(CC(O)(C4)C2)C3)CCCCC1	1	-9	-13	i	-2	-7	3	4
Clc1cc(Br)ccc1OCCOCCN1CCCC1	-12	5	6	i	-2	50	0	1
COCCCNC(=O)Cc1c(C)c2c(cc(C)c3c(C)c(C)oc32)oc1=O	-7	-9	-4	i	5	·	1	-5
NC(=O)c1ccsc1NC(=O)COC(=O)c1cccnc1Cl	0	·	-15	·	·	-9	4	-2
N#Cc1ccc(C(=O)OCCc2cc3ccccc3c(=O)o2)cc1	25	·	-10	·	·	1	3	8
Cc1ccc(C(=O)N2CC=C(c3ccccc3)CC2)s1	-10	·	-14	i	·	3	-6	-1
Cc1ccc(C(=O)CC(=O)c2ccccc2C)c(O)c1	-2	2	-8	i	1	26	-1	-3
CCOC(=O)c1[nH]c2ccccc2c1NC(=O)c1ccc(S(=O)(=O)N2CCOCC2)cc1	-5	0	-17	i	1	-7	-5	-3
CCO[C@@H]1OC(C(=O)NCc2ccccc2)=C[C@H](c2coc3ccccc3c2=O)[C@H]1CCCO	-8	2	0	i	-14	-18	11	6
Further entries.
SMILES	Env fusion inh	eIF4H inh	UUG fidelity	Rce1 inhib	PABP polyA inh	CSC inhib	MT1-MMP act inh	MT1-MMP act inh RFP
O=C(CSc1nc2ccccc2c(=O)n1Cc1ccc(F)cc1)NCC1CCCO1 (stereo unspecified)	·	·	-7	·	·	-2	12	0
Cc1c(C)c2ccc(OCC(=O)Nc3ccccn3)cc2oc1=O	-3	4	-26	i	8	-3	2	-2
O=C(NCc1ccccc1)c1cccc(Br)n1	-18	-12	-10	i	3	-8	-6	-7
CCc1cccc(C)c1NC(=S)N(CCN(C)C)C(C)c1ccco1 (stereo unspecified)	-3	-4	·	i	2	-7	3	5
O=C(O)c1cccnc1Cl	-37	-1	·	i	-7	17	3	9
Cc1ccc(S(=O)(=O)Cc2ccccc2Cl)cc1	6	-13	·	i	7	-2	2	-5
COc1ccc(C(=O)OCCCOC(=O)c2ccc(OC)cc2OC)c(OC)c1	-5	8	-2	i	6	-4	-1	0
COCCCNC(=S)Nc1ccc(CC(=O)O)cc1	19	5	·	i	2	0	3	2
O=C1N(Cc2cccc(Cl)c2)C[C@@H]2C[C@@H](c3ccc4nonc4c3)N3CCC[C@@]123	23	-5	-2	i	0	-8	-5	-6
CCOC(=O)C1CCN(CCC(=O)Nc2ccccc2Cl)CC1	-22	-7	-13	i	-19	-7	2	1
Nc1ccc(OC(=O)Nc2ccc(O)cc2)cc1	14	-3	-33	i	8	4	11	8
CSc1nc(N)nc2c1ncn2CC(=O)NCc1ccc2[nH]ccc2c1	21	·	-5	·	·	·	2	-6
NC(=O)c1cc2ccccc2o/c1=N/NC(=O)c1cccc(F)c1	-10	-1	-7	i	3	2	4	-1
COc1cc(OC)c(S(=O)(=O)Nc2ccc(C(=O)N3CCCC3)cc2)cc1NC(C)=O	9	-15	·	i	3	-12	-5	0
CC(=O)Nc1cc(C(=O)OCC(=O)c2ccccc2)ccc1C	-47	0	-7	i	6	-5	5	2
O=C(NCc1cccs1)C(=O)NCC(c1ccco1)N1CCN(c2ccc(F)cc2)CC1 (stereo unspecified)	-4	-6	-14	i	4	-2	-4	-24
COc1cccc(NC(=O)N(C)C[C@@H]2Oc3ncc(Br)cc3C(=O)N([C@@H](C)CO)C[C@H]2C)c1	16	·	-14	·	·	·	-2	4
Cc1c(Nc2nc(-c3ccccc3)cs2)c(=O)n(-c2ccccc2)n1C	4	-12	·	i	-12	-1	2	-1
O=C(NN1CCN(Cc2ccccc2)CC1)c1ccc(N2CCOCC2)c([N+](=O)[O-])c1	6	1	·	i	1	19	-1	-5
COc1ccccc1-c1c(-c2ccc(OCC(=O)NN)cc2O)n[nH]c1C(F)(F)F	-1	9	18	i	-4	27	9	-6
Cc1cccc(NC(=O)C2CCN(C(=O)c3ccco3)CC2)c1C	3	0	-21	i	-7	-9	-1	2
CN(CC(=O)Nc1ccc(S(=O)(=O)N2CCCC2)cc1)Cc1ccc(Cl)c(Cl)c1	-11	-10	·	i	1	21	0	-7
CC(C)Cn1c(N)c(C(=O)COC(=O)c2cccc(F)c2)c(=O)n(C)c1=O	-1	4	·	·	-2	·	-1	-9
CN(C(=O)c1ccc(NC(=O)Cc2ccc(NC(=O)C3CCCN(C(=O)CCc4ccccc4)C3)cc2)cc1)C1CC1 (stereo unspecified)	56*	·	-6	·	·	0	10	-28
OC(COc1ccccc1)CN1C2=NCCCN2c2ccccc21 (stereo unspecified)	·	1	-11	i	3	-12	2	-2

Reprinted from the part before: 2 entries; new compounds follow.
SMILES	Env fusion inh	eIF4H inh	UUG fidelity	Rce1 inhib	PABP polyA inh	CSC inhib	MT1-MMP act inh	MT1-MMP act inh RFP
CN(C(=O)c1ccc(NC(=O)Cc2ccc(NC(=O)C3CCCN(C(=O)CCc4ccccc4)C3)cc2)cc1)C1CC1 (stereo unspecified)	56*	·	-6	·	·	0	10	-28
OC(COc1ccccc1)CN1C2=NCCCN2c2ccccc21 (stereo unspecified)	·	1	-11	i	3	-12	2	-2
Cc1cc(C(=O)NC2CCCc3ccccc32)c(C)o1 (stereo unspecified)	·	4	-14	i	4	0	-10	2
CC(=NNC(=O)CSCC(=O)NN=C(C)c1ccccc1)c1ccccc1	18	·	-4	·	·	·	0	-3
Cc1cc(NC(=O)COC(=O)c2ccc(F)c(S(=O)(=O)N3CCOCC3)c2)no1	·	-2	-33	i	4	-5	0	1
Fc1ccc(-c2cn3ccccc3n2)cc1	-188	-9	-32	i	4	14	8	6
CCOC(=O)CN(C)C(=O)CCc1nnc(-c2ccsc2)o1	10	7	-4	i	6	-22	-1	2
CCc1ccc(CN(C)C(=O)C2CCC(=O)N(CC3CCCCC3)C2)cc1 (stereo unspecified)	0	-6	4	i	6	8	-4	-6
CC(C)(C)c1ccc(S(=O)(=O)Nc2ccc(Cc3ccncc3)cc2)cc1	·	-7	-8	i	5	20	-37	-44
CC(C)OC(=O)c1c(NC(=O)c2cnn3c2NC(c2ccccc2)CC3C(F)F)sc2c1CCCC2 (stereo unspecified)	·	-13	·	i	-11	37	·	·
O=C(Nc1nnc(S(=O)(=O)N2CCOCC2)s1)c1ccccc1	-14	44	5	i	25	1	-4	1
Cc1c(C(=O)N/N=C/c2cccnc2)sc(N)c1C#N	-25	4	-17	i	-1	-4	-6	2
Cc1cc(NC(=O)CSc2nnnn2-c2ccccc2F)no1	8	1	-5	i	-7	-2	-1	-3
CC(C)[C@H](NC(=O)Cc1ccccc1)C(=O)OCc1cc(=O)n2c(n1)sc1ccccc12	-7	75*	·	i	120*	-16	-2	0
NC(N)=N/N=C/c1ccc(Cl)c(Cl)c1	14	4	-14	i	-4	6	4	-1
CCOC(=O)C1=C(CC)Nc2ccccc2N=C1NC(=O)c1cc(S(=O)(=O)N(C)C)ccc1Cl	·	-2	-16	i	-9	5	-1	0
CCN1CCCc2cc(CN(CCN3CCOCC3)C(=S)Nc3ccccc3C)ccc21	4	4	·	i	-10	9	-1	-3
CCOC(=O)C1CCN(C(=O)CCc2nnc3ccc(NCc4ccco4)nn23)CC1	2	43	-9	i	25	-11	-5	-5
CC(Sc1ccc(Cl)cc1)C(=O)NCC1CCCO1 (stereo unspecified)	·	0	-3	i	-2	-3	0	0
COc1ccc(/C=C/C(=O)NCCN2CCOCC2)cc1OC	0	1	·	·	6	-6	-9	3
Cc1cc(N2CC(=O)N(CCc3ccccc3)C(=O)C2)n2ncnc2n1	-65	8	12	i	-7	-4	2	5
CC(C)(C)NC(=O)c1ccc(Sc2ccccc2)c([N+](=O)[O-])c1	·	5	·	i	3	23	2	-9
NC(=O)NC(=O)CSc1nnc(-c2ccco2)n1Cc1ccccc1	-10	0	-16	i	-4	9	0	4
C/C(=N\NC(=O)CSc1nc2nc(C)cc(C)n2n1)c1ccccc1	·	-6	-8	i	3	·	-5	-1
Cc1cccc(OCCCC(=O)Nc2ccc(N3CCOCC3)cc2)c1	·	32	-27	i	3	3	3	3
COc1ccc(C(=O)Nc2ccccc2C(=O)NCC2CCCO2)cc1 (stereo unspecified)	5	-9	-15	i	4	-2	-2	-1
CCCCS(=O)(=O)NC1=NCN(CCOC(=O)c2ccccc2)CN1	·	·	-4	i	·	1	2	6
(continued)
SMILES	Env fusion inh	eIF4H inh	UUG fidelity	Rce1 inhib	PABP polyA inh	CSC inhib	MT1-MMP act inh	MT1-MMP act inh RFP
COc1ccc(NC(=O)C2(C)Cc3c(-c4ccc(C(N)=O)cc4)ccnc3O2)cc1 (stereo unspecified)	7	·	12	·	·	·	2	0
C=CCc1cccc2cc(C(=O)NC(C)(C)C)c(=O)oc12	·	2	-2	i	-4	-9	1	1
Cc1ccc(S(=O)(=O)NCCC(c2ccc(F)cc2)c2ccco2)cc1 (stereo unspecified)	3	-5	·	i	6	32	-6	-8
O=C(CSc1nnc(CNC(=O)c2ccco2)o1)Nc1ccc(OC(F)(F)F)cc1	-3	0	-11	i	6	-9	2	2
Cc1ccc(C(=O)CC2(O)C(=O)N(CN3CCOCC3)c3ccccc32)cc1 (stereo unspecified)	·	2	11	i	-6	-4	4	5
CCOc1ccc(C2N(c3ccc(Cl)cc3)C(=O)C3CCCN32)cc1OC (stereo unspecified)	-14	-6	-16	i	0	11	3	9

Filtered by structure, those above containing a tert-butyl group.
SMILES	Env fusion inh	eIF4H inh	UUG fidelity	Rce1 inhib	PABP polyA inh	CSC inhib	MT1-MMP act inh	MT1-MMP act inh RFP
COCCN(C(=O)CNC(=O)c1cccs1)C(C(=O)NC(C)(C)C)c1ccccc1 (stereo unspecified)	-2	4	·	i	7	-4	4	7
CC(C)(C)c1ccc(S(=O)(=O)Nc2ccc(Cc3ccncc3)cc2)cc1	·	-7	-8	i	5	20	-37	-44
CC(C)(C)NC(=O)c1ccc(Sc2ccccc2)c([N+](=O)[O-])c1	·	5	·	i	3	23	2	-9
C=CCc1cccc2cc(C(=O)NC(C)(C)C)c(=O)oc12	·	2	-2	i	-4	-9	1	1
